Screening data as filed in PubChem BioAssay.
GIV Gai3 FP = inhibitors of GIV GBA-motif binding to rat Galpha-i3; AID 1224905; actives 0.42% (n = 210,000); Galpha-i3/FITC-GIV peptide fluorescence polarization, 90 min; active compounds read low; scaled: aluminum fluoride 0%, vehicle 100%; percent of control (FP), % (no concentration beside the values); P08753;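 active means replicate mean at 85% of control or lower, very high polarization wells dropped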;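 further: wells of about 15 µL received 100 nL stock; the first replicate is given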
Target sequence (P08753 whole entry, looked up): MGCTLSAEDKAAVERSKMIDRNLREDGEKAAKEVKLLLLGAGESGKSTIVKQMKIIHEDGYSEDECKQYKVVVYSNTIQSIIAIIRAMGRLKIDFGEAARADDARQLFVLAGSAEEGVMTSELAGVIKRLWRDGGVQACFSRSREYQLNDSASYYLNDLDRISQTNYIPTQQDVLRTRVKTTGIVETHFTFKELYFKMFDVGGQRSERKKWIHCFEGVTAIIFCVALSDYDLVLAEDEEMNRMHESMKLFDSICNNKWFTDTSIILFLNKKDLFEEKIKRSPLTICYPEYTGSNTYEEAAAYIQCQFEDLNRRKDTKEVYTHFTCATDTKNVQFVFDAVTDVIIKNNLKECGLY
Numbers without * were called inactive.

Sample of the layout:
SMILES	GIV Gai3 FP
CCCS(=O)(=O)c1c(S(=O)(=O)CCC)c2c3ccccc3ccn2c1C(=O)c1ccc(OC)cc1	119.8
Cc1ccc(S(=O)(=O)N2CCC3(CC2)NCCN=C3NC(C)(C)C)c(C)c1	106.4
CCc1nc(-c2csc(S(=O)(=O)N3CCC(C(=O)N4CCC(C)CC4)CC3)c2)no1	108.5

The list itself, repeating the preview:
SMILES	GIV Gai3 FP
CCCS(=O)(=O)c1c(S(=O)(=O)CCC)c2c3ccccc3ccn2c1C(=O)c1ccc(OC)cc1	119.8
Cc1ccc(S(=O)(=O)N2CCC3(CC2)NCCN=C3NC(C)(C)C)c(C)c1	106.4
CCc1nc(-c2csc(S(=O)(=O)N3CCC(C(=O)N4CCC(C)CC4)CC3)c2)no1	108.5
O=C(NCc1cccc(Cl)c1)c1cc2ccccn2c1	75.9*
O=S(=O)(Nc1ccc(Cl)cc1)c1cc(-c2noc(C3CC3)n2)cs1	99.0
CCOC(=O)C(C)Sc1nc2c(c(-c3cccs3)c1C#N)CCCC2 (stereo not given)	109.7
O=S(=O)(Nc1cc(-c2ccoc2)no1)c1ccc2c(c1)CCC2	102.6
Cc1cc2c(cc1C)-c1c(sn(-c3ccc(Cl)c(C(F)(F)F)c3)c1=S)C(C)(C)N2	106.1
COc1cc(C(=O)Nc2ccc3c(c2)Nc2ccccc2CC3)cc(OC)c1OC	110.5
Cc1cc(C2CCCN2S(=O)(=O)c2ccccc2F)on1 (stereo not given)	98.0
COC(=O)CN1C(c2cc(OC)c(OC)c(OC)c2)=Nc2ccc(Br)cc2C1c1ccccc1 (stereo not given)	108.1
CCCN(CCC)CC(O)CN(c1ccc(OC)cc1)S(=O)(=O)c1ccc(C)cc1 (stereo not given)	123.2
CC(C)(C)n1nc2c(c1NC(=O)c1ccc(Br)o1)CSC2	101.6
O=C1C2C3c4ccccc4C(c4ccccc43)C2C(=O)N1c1cc([N+](=O)[O-])ccc1Cl (stereo not given)	122.0
Cc1sc(-c2nc(C(C)C)cs2)cc1S(=O)(=O)N1CCCCCC1	107.0
COc1cc(/C=N/n2c(C)nnc2-n2nc(C)cc2C)cc(I)c1O	114.3
CCCc1cc(C2CCCN2Cc2ccc(OC(C)C)c(OC)c2)no1 (stereo not given)	99.5
Cc1sc(C)c(S(=O)(=O)N2CCCCC2)c1-c1cc(C(F)(F)F)on1	102.6
CS(=O)(=O)Nc1ccc(-c2noc(C3(c4ccccc4)CC3)n2)cc1	105.9
O=C(CNC(=O)COc1ccccc1)NCc1cscn1	118.0
O=C(NCCCN1CCOCC1)c1ccc2c(=O)n(Cc3ccc4c(c3)OCO4)c(=S)[nH]c2c1	111.3
CN(c1ccc(Br)cc1)S(=O)(=O)c1ccc2[nH]cc(C(=O)NC3CCCC3)c(=O)c2c1	99.6
COc1ccc(C2(C(=O)N3CCc4[nH]cnc4C34CCCCC4)CC2)cc1	102.5
Cc1cc(C)cc(NC(=O)c2ccc(-c3ncccc3-n3c(C)ccc3C)cc2)c1	104.1
Cc1cccc(C)c1OC1(c2ccccc2)OC(=O)c2ccccc21 (stereo not given)	104.3
COc1cc(NC(=O)N2CCCC2c2c(C)noc2C)cc(OC)c1 (stereo not given)	105.4
CCCCC1(O)C(C)C(c2ccccc2)N(C)C(c2ccccc2)C1C (stereo not given)	109.2
Cc1[nH]n(-c2ccccc2)c(=O)c1C(c1ccc(OCc2ccccc2Cl)cc1)c1c(C)[nH]n(-c2ccccc2)c1=O	106.5
O=C(CSc1nnc(CNC(=O)c2ccco2)n1-c1ccc([N+](=O)[O-])cc1)Nc1cc(C(F)(F)F)ccc1Cl	122.5
Cc1[nH]c2ccccc2c1CCNC(=O)c1ccccc1NC(=O)c1cccs1	105.0

Already shown: an excerpt of the list.
SMILES	GIV Gai3 FP
CCCCC1(O)C(C)C(c2ccccc2)N(C)C(c2ccccc2)C1C (stereo not given)	109.2
Cc1[nH]n(-c2ccccc2)c(=O)c1C(c1ccc(OCc2ccccc2Cl)cc1)c1c(C)[nH]n(-c2ccccc2)c1=O	106.5
O=C(CSc1nnc(CNC(=O)c2ccco2)n1-c1ccc([N+](=O)[O-])cc1)Nc1cc(C(F)(F)F)ccc1Cl	122.5
Cc1[nH]c2ccccc2c1CCNC(=O)c1ccccc1NC(=O)c1cccs1	105.0

(continued)
SMILES	GIV Gai3 FP
CCOC(=O)C1=C(O)/C(=C/c2ccc(O)c(OC)c2)SC1=Nc1ccc([N+](=O)[O-])cc1	122.9
Cc1noc(C)c1C1CCCN1C(=O)Cn1nc(C(F)(F)F)c2c1CCCC2 (stereo not given)	97.1
O=C(Nc1cc2c3c(c1)C1CCCC1CN3CC1CCCC21)c1ccc(Br)cc1 (stereo not given)	112.7
COC(=O)C1C(=O)NC(SCC(=O)Nc2cccc(Cl)c2)=C(C#N)C1c1ccccc1Cl (stereo not given)	111.3
CCOC(=O)C1Cn2c(nc3c(c2=O)C2(CCCC2)Cc2ccccc2-3)S1 (stereo not given)	110.6
COc1cccc(-c2nc(-c3cccc(OC)c3)c(-c3cccc(OC)c3)[nH]2)c1	101.6
N#CC1(C#N)[C@H](c2ccc(Br)cc2)[C@@H](C(=O)C23CC4CC(CC(C4)C2)C3)N2c3ccccc3C=C[C@@H]21	108.9
COc1ccc(CCNC(=O)CCn2c(SCc3ccc([N+](=O)[O-])cc3)nc3ccccc3c2=O)cc1OC	116.7
Cc1csc(NC(=O)CN(C)S(=O)(=O)c2cc3c(cc2C)NC(=O)C(C)O3)n1 (stereo not given)	104.5
O=C(CSc1nc2ccccc2n1S(=O)(=O)c1ccccc1)c1ccc(Cl)cc1	117.0
Cc1ccc2nc(CNC(=O)c3nc(-c4ccc(S(=O)(=O)N(C)C)cc4)no3)[nH]c2c1	110.2
CCOC(=O)C1=C(c2ccccc2)OC(N)=C(C#N)C1c1ccc(CC)cc1 (stereo not given)	110.5
CCCn1ccnc(N2CCOCC2)c1=O	111.7
Cc1cccc2c1CC(C)(C)N/C2=C/C(N)=O	122.5
CCOc1ccc(-c2[nH]nc3c2C(c2ccc(OC)c(OC)c2)C(C#N)=C(N)O3)c(OCC)c1 (stereo not given)	105.8
CCOc1ccc(-c2[nH]ncc2CN2CCCC2c2cc(C(C)C)on2)cc1 (stereo not given)	123.0
NS(=O)(=O)c1ccc(CCNC(=O)CSc2nc3ccccc3c(=O)n2Cc2ccc3c(c2)OCO3)cc1	106.4
O=C(CN1C(=O)C2C3C=CC(C3)C2C1=O)N1CCN(c2cccc(Cl)c2)CC1 (stereo not given)	96.6
CCOC(=O)COc1c(Br)cc(/C=C2\SC(=O)N(C)C2=O)cc1OC	103.2
COc1cc(C(=O)Nc2ccc(-c3nc4ccc(C)cc4s3)cc2)c(Br)c(OC)c1OC	106.2
CCC(C)(C)NC(=O)c1ccc(-c2ccc(C)cc2)nc1	109.4
COc1ccc(OC)c(-n2cnc3cc(C(=O)NCCCN4CCOCC4)ccc32)c1	102.1
Cc1c([N+](=O)[O-])c(C)c2c(=O)cc(C(F)(F)C(F)(F)C(F)(F)C(F)F)oc2c1[N+](=O)[O-]	96.5
O=C1NC(=S)NC(=O)C1=Cc1ccc(Sc2nc3ccccc3s2)c([N+](=O)[O-])c1	100.3
COc1ccc(CNC(=O)C2(C)CCCN(S(=O)(=O)c3ccc(C(C)(C)C)cc3)C2)cc1 (stereo not given)	103.1
Cc1cc(-c2c(-c3ccccc3)[nH]c3c2c(=O)n(C)c(=O)n3C)c(C)s1	96.0
COc1ccccc1N(CCOC(=O)Cn1cnc2ccccc2c1=O)C1=NS(=O)(=O)c2ccccc21	111.8
CNC(=O)c1ccc(-c2nc3cc(NS(=O)(=O)c4cc(Cl)ccc4OC)ccc3n2C)cc1	97.2
COc1cc(C2Nc3ccc4ccccc4c3C3=C2C(=O)CC(C)(C)C3)cc(OC)c1OC(C)=O (stereo not given)	107.1
Cc1nc(-c2cc(S(=O)(=O)N3CCN(c4ccccc4Cl)CC3)c(C)s2)cs1	108.3
Cc1cccc(-n2ncc3c(N4CCN(c5ccc([N+](=O)[O-])cc5)CC4)ncnc32)c1	110.6
COc1ccc2nc(NC(=O)Cc3nn(C)c(=O)c4ccccc34)sc2c1	110.0
COc1ccccc1CC(=O)Nc1ccc(-c2noc(-c3cc(Cl)ccc3OC)n2)cc1	98.2
Cc1ccc(-c2nc3c4ccccc4n(CC(=O)c4c[nH]c5ccccc45)c(=O)n3n2)cc1	111.5
CCOc1ccc(C2C(N3C(=O)c4c(Cl)c(Cl)c(Cl)c(Cl)c4C3=O)C(=O)N2c2ccc(C)c(F)c2)cc1 (stereo not given)	104.6
CCOc1ccc(-n2c(=S)[nH]c3c(sc(=S)n3-c3ccc(CC)cc3)c2=O)cc1	112.5
CCCCCCCCCOC1OC(COC(C)=O)C(OC(C)=O)C(OC(C)=O)C1NC(C)=O (stereo not given)	107.6
COc1ccc(/C=C2\N=C(c3ccc(Cl)cc3)N(c3cccc(C)c3)C2=O)cc1OC	116.5
S=c1sc(SCc2ccccc2)c(SCc2ccccc2)s1	99.7
COc1cc(OC)c(C2C(C(=O)OC3CCCC3)=C(C)NC3=C2C(=O)CC(c2cccs2)C3)cc1OC (stereo not given)	103.8
CCC(=O)Nc1cc(F)c2[nH]c(=O)ccc2c1	100.2
O=C(CSc1nc2ccc(N3C(=O)c4ccc([N+](=O)[O-])cc4C3=O)cc2s1)NC1CC1	107.7
COc1ccccc1NC(=O)c1c(NC(=O)c2cccnc2)sc2c1CCCCC2	102.9
Cc1cc(C)c2c(c1)CC(C)(C)c1nc3cc4ccccc4cc3nc1-2	101.4
COC(=O)c1ccc(N2C(=O)CSC2c2ccccc2Br)cc1 (stereo not given)	112.6

In a second layout: entries from further up.
molecule | GIV Gai3 FP
O=C(CSc1nc2ccc(N3C(=O)c4ccc([N+](=O)[O-])cc4C3=O)cc2s1)NC1CC1 | 107.7
COc1ccccc1NC(=O)c1c(NC(=O)c2cccnc2)sc2c1CCCCC2 | 102.9

The results go on.
SMILES	GIV Gai3 FP
CCOC(=O)C1=c2s/c(=C/c3ccc(F)cc3)c(=O)n2C(N)=C(C#N)C1c1ccc(F)cc1 (stereo not given)	104.7
CC1(C)CC(C)(c2ccc(O)cc2O)N(c2ccccc2)C(=S)N1 (stereo not given)	111.6
CCOC(=O)C1=C(c2ccccc2)OC(N)=C(C#N)C1c1ccco1 (stereo not given)	127.1
CCCc1cc(=O)[nH]c2nnc(SC(C)C)n12	104.1
COCCNC(=O)c1ccc2c(c1)[nH]c(=S)n1c3ccccc3nc21	109.8
O=C(Cn1c(-c2ccccc2F)nc2ccccc2c1=O)Nc1nc2ccccc2s1	104.6
Cc1cc(NC(=O)Nc2ccccc2)c2[nH]c(C(=O)NCCN3CCOCC3)c(-c3ccccc3)c2c1	99.5
Cc1ccc(NC(=O)CSc2nc3ccc(NC(=O)CSc4nncn4C)cc3s2)cc1Cl	109.0
Cc1nc(CN2C(=O)COc3cc(S(=O)(=O)N4CCC(C)CC4)c(Cl)cc32)no1	99.4
CC(C)NC(=O)CSc1nnc2n(CCC(=O)NC3CCCCC3)c(=O)c3ccccc3n12	96.7
O=C(Nc1ccc(-n2cccc(C(=O)NCCc3ccccc3)c2=O)cc1)c1ccc(F)cc1	102.7
CCCCCCOC(=O)c1ccc2c3c(onc13)-c1ccccc1C2=O	104.4
CC1CCN(Cc2nc(Cn3ccn4nc(-c5cccs5)cc4c3=O)no2)CC1	101.8
Cc1cccc2nc(CSc3nc4[nH]ncc4c(=O)n3-c3ccc(Br)cc3)cc(=O)n12	101.8
CC[C@H](C)NC(=O)c1snc(C(=O)NC(C)C)c1N	102.8
Cc1ccc(N2C(=O)/C(=C/c3ccc(-c4cc(Cl)ccc4Cl)o3)C=C2c2ccccc2)c(Br)c1	104.7
COCCn1c(CNC(=O)CC(C)C)nc2cccnc21	99.3
CC(=O)Nc1ccc(-c2noc(C3CCCN(C(=O)c4ccc(F)cc4)C3)n2)cc1 (stereo not given)	104.2
Fc1ccc(-c2csc(Nc3ccccn3)n2)cc1	101.5
O=[N+]([O-])c1ccccc1C1CC(c2ccc(Br)cc2)=Nc2ccccc2N1 (stereo not given)	116.5
O=C(NCCc1cscn1)C1CCN(C(=O)c2cccs2)CC1	101.2
Cc1ccc(C2(c3ccc(C)cc3)CC2C(=O)Nc2ccc(Br)cc2)cc1 (stereo not given)	108.1
C=CCn1nnc(NCc2ccc(-c3ccc(Cl)cc3)o2)n1	100.5
Cc1cc(C)n(-c2nnc(C)n2/N=C/c2ccco2)n1	104.9
C=CCN1C(=O)CC(C(=O)Nc2ccc(OC)cc2)SC1=Nc1ccc(Cl)cc1 (stereo not given)	109.6
O=C(NCc1c(-c2ccccc2)nc2n1CCS2)c1ccccc1Br	96.3
Cc1ccccc1-n1ccnc1SCC(=O)NCC1CCCO1 (stereo not given)	93.9
Cc1cc(C)n(-c2nc3c(c(=O)n2CC(=O)N2CCCCC2)CCCC3)n1	100.9
CCOc1ccc(CN2CCCC2c2c(C)noc2C)cc1 (stereo not given)	96.9
O=C(Nc1c2c(nn1-c1ccc(F)cc1)CS(=O)(=O)C2)c1cc(Br)ccc1Cl	99.6
Cc1nn(C)cc1CN1CCCC(OCc2nc(C3CC3)no2)C1 (stereo not given)	99.1
CCNc1cc(C)nc(N2CCN(S(=O)(=O)c3ccc(OC)c(OC)c3)CC2)n1	96.9
CN(C)S(=O)(=O)N1CCc2[nH]nc(-c3ccc(F)cc3)c2C1	102.2
CN1C(=O)c2ccccc2Oc2ccc(NC(=O)c3ccsc3)cc21	95.1
Cc1onc(-c2ccccc2Cl)c1C(=O)Nc1ccc(Cl)cc1	108.3
COc1ccc(CNC(=O)c2cccc(-c3ccc(S(=O)(=O)N4CCCC4)cc3)c2)c(OC)c1	100.6
O=C(c1ccsc1)N1CCCCC1CCN1CCOCC1 (stereo not given)	102.9
CCCCCCCc1c2c(C)c(C(=O)OCC)[nH]c2cc2[n+]1CC(C)=C2C	112.9
CCCNC(=O)CN1c2ccccc2NC2=C(C(=O)CCC2)C1c1ccco1 (stereo not given)	104.3
CC(=O)C1=NN(c2ccccc2)C(c2ccccc2OCc2c(Cl)cccc2Cl)N1c1ccc(Cl)c(Cl)c1 (stereo not given)	106.2

The list is partial; count on the stated rates, not on these rows.
